Source: PubChem
Measles inh – inhibitors of measles virus growth in infected cells; infected Vero cells, GFP fluorescence, 64 h; stronger effect = lower value; z-score (test concentration not listed); actives 0.1% (n = 33,000);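 active means z-score under -3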;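 further: score is relative to mean and SD of the compound wells of a plate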
* hit, by the source's call.

Measles inh | Structure
-3 | COC(=O)c1ccc(C(=O)Nc2nc3c(s2)CCc2ccccc2-3)cc1
-0.91 | O=C(CCN1C(=O)c2cccnc2C1=O)Nc1ncc(Br)s1
0.53 | Cc1ccc(C)n1CCN1CCN(CC(=O)c2ccc3c(c2)OCO3)CC1
-0.95 | CCOC(=O)c1ccc(CN(Cc2ccc(F)cc2)S(=O)(=O)c2cccc([N+](=O)[O-])c2)cc1
-0.39 | O=C(c1ccco1)N1CCN(C(=O)C2CCN(S(=O)(=O)c3cccc4nsnc34)CC2)CC1
0.91 | CCOc1ccc(-n2c(SCC(=O)Nc3cc(C)on3)nc3c(c2=O)SCC3)cc1
2.1 | O=C(Nc1nnc(Cc2ccc(F)cc2)s1)c1cccs1
0.41 | O=C1c2cccc3cccc(c23)C(=O)N1c1cccc(C(F)(F)F)c1
-0.49 | Brc1ccc(C2CC(c3ccc(I)cc3)Nc3nnnn32)cc1 (centres undefined)
1.1 | O=C1CSc2ccc(C(=O)NC3CCCCCC3)cc2N1
0.3 | O=c1c2c(-c3cccs3)csc2[nH]c(=S)n1-c1ccccc1
0.98 | Cc1ccc(NC(=O)c2c(C)nc3sc(C(=O)NC4CCCCC4)c(N)c3c2-c2ccc(C)o2)c(C)c1
-0.31 | CCOc1ccccc1C(=O)Nc1ccc(S(=O)(=O)Nc2ncccn2)cc1
0.98 | N#Cc1c2c(c(NCc3ccco3)n3c1nc1ccccc13)CCC2
-1.6 | Cc1cccc(-c2noc(-c3cccs3)n2)c1
0.64 | O=C1c2ccccc2S(=O)(=O)N1CC(O)COc1ccccc1 (centres undefined)
0.07 | Cc1ncc(C[n+]2csc(C)c2C)c(N)n1
0.84 | Cc1csc2nc(CSc3nc4ccc([N+](=O)[O-])cc4[nH]3)c(Br)n12
-0.45 | O=C(CCc1nc(-c2cccs2)no1)Nc1ccc(Cl)cn1
-0.16 | O=[N+]([O-])C(C1CCS(=O)(=O)C1)C1CCS(=O)(=O)C1 (centres undefined)
-0.55 | Cc1nnc(SCC(=O)Nc2sc3c(c2C#N)CCC3)s1
-0.1 | COc1ccc(OC)c(-n2c(=S)[nH]c3cc(C(=O)N4CCc5ccccc5C4)ccc3c2=O)c1
0.11 | CCCCCOC(=O)c1ccc2c(c1)C(=O)N(C1CCCCC1)C2=O
-0.43 | Sc1sc(-c2ccccc2)cc1C=Nc1ccccc1
-0.56 | Oc1ccccc1C=NCCN=Cc1ccccc1O
0.51 | CCCCOc1ccc2c3c(c(=O)oc2c1OCCCC)CCC3
0.31 | COCCNC(=O)C(NC(=O)C1CCCCC1)C(C)C (centres undefined)
0.16 | Cc1cccc(-n2nc3c(c2NC(=O)CCc2ccccc2)CS(=O)(=O)C3)c1C
1.6 | Cc1cc(C(=O)Nc2sc3c(c2C(=O)OC(C)C)CCCC3)ccc1[N+](=O)[O-]
-0.05 | CC(C)CNC1=C(C(=S)Nc2ccccc2)C(=O)CC(C)(C)C1
0.86 | Cc1onc(-c2ccccc2Cl)c1C(=O)Nc1nc(-c2ccc([N+](=O)[O-])cc2)cs1
0.88 | CCC1(C)N=C(c2ccc3c(c2)OCO3)CC(c2ccccc2O)N1 (centres undefined)
0.04 | COc1cc2nc3c(C(=O)NCc4ccccc4)cccn3c(=O)c2cc1OC
1.1 | O=C(CCCCCn1c(=S)[nH]c2ccsc2c1=O)N1CCCC1
0.9 | O=S(=O)(Nc1cccnc1)c1ccc(F)cc1
-0.31 | COc1cccc(C2CC(=O)C3=C(C2)NC(C)=C(C(=O)OC2CCCC2)C3c2ccc(C)o2)c1 (centres undefined)
0.38 | Cc1cc(NC(=O)c2ccc(Cl)cc2)nc2c1c(=O)oc1ccccc12
0.41 | CCOc1ccc(Oc2cc(NC(=O)c3cc4nc(-c5ccccc5)cc(C)n4n3)cc([N+](=O)[O-])c2)cc1
0.55 | CC1CCCCN1C(=O)c1nn2c(c1Cl)NC(c1cccs1)CC2C(F)(F)F (centres undefined)
1.1 | Cc1nn2c(C(F)(F)F)cc(-c3ccc(Cl)cc3)nc2c1C(=O)N1CCCCCC1
-0.76 | COC(=O)c1ccc2c(=O)n(Cc3ccco3)c(SCC(=O)Nc3ccccc3Cl)nc2c1
-0.85 | COc1ccc(CNC(=O)c2ccc3c(=O)n(-c4ccc(OC)cc4OC)c(=S)[nH]c3c2)cc1
-0.06 | CCCCN(CCCC)S(=O)(=O)c1cc(Br)cc2c1N(C(C)=O)CC2
1.2 | Cc1cc(C(F)(F)F)nn1-c1nc(-c2ccco2)cc(C(F)(F)F)n1
1.9 | O=C(Nc1nnc(N=Cc2cccs2)s1)c1ccc(S(=O)(=O)N2CCCCC2)cc1
0.14 | COC(=O)c1c(C)oc2c1cc(NS(=O)(=O)c1ccc(F)cc1)c1ccccc12
-0.53 | CCOCN(C(=O)CSc1nc2ccccc2[nH]1)c1c(C)cccc1CC
-1.4 | COc1ccc(S(=O)(=O)N2CCN(CC(=O)Nc3cc(C(F)(F)F)ccc3Cl)CC2)cc1
0.07 | CC(=O)NC1(C(F)(F)F)N=C2SCCN2C1=O (centres undefined)
0.52 | COC(=O)c1cc(-c2cccc(Br)c2)nc2ccccc12
-0.45 | CC(C)(C)c1cc(Br)ccc1OCC(=O)Nc1ccc(S(=O)(=O)Nc2nccs2)cc1
1.5 | COc1ccccc1NC(=O)Cn1c(=O)n(-c2ccc(Cl)cc2)c(=O)c2c(C)c(C)sc21
-0.12 | COc1ccc(CN(CCC2(c3ccccc3)CCOC(C)(C)C2)C(C)=O)cc1OC (centres undefined)
0.38 | O=C(CSc1nc2[nH]ncc2c(=O)n1-c1cccc(C(F)(F)F)c1)NCc1cccs1
0.17 | COc1ccc(-c2noc(CCC(=O)NCc3ccc(C)o3)n2)cc1
1.9 | O=C(Cn1c(=O)n(-c2ccccc2)c(=O)c2sccc21)N1CCCCCC1
0.61 | CCn1c[n+](CC(O)COCc2ccccc2)c2ccccc21 (centres undefined)
-0.22 | O=C(c1ccc2c(c1)[nH]c(=S)n1c3ccccc3nc21)N1CCc2ccccc2C1
-0.09 | CCOC(=O)c1cnc2ccc(OCC)cc2c1Nc1ccccc1CC
-0.54 | N=c1oc2ccccc2cc1C(N)=S

Looked up above:
CC(C)CNC1=C(C(=S)Nc2ccccc2)C(=O)CC(C)(C)C1 | Measles inh = -0.05
Cc1ccc(C)n1CCN1CCN(CC(=O)c2ccc3c(c2)OCO3)CC1 | Measles inh = 0.53
Cc1cc(NC(=O)c2ccc(Cl)cc2)nc2c1c(=O)oc1ccccc12 | Measles inh = 0.38
O=C(Nc1nnc(Cc2ccc(F)cc2)s1)c1cccs1 | Measles inh = 2.1
CCC1(C)N=C(c2ccc3c(c2)OCO3)CC(c2ccccc2O)N1 (centres undefined) | Measles inh = 0.88
CCCCOc1ccc2c3c(c(=O)oc2c1OCCCC)CCC3 | Measles inh = 0.51

(list continues)
Measles inh | Structure
-0.72 | COc1ccc(C2(C(=O)Nc3ccc(C)cc3)CCCC2)cc1OC
-1.1 | O=C(NCc1n[nH]c(=S)n1-c1ccc(Br)cc1)c1cccc2ccccc12
-0.35 | Cc1c(Cl)cccc1NC(=O)c1noc2c1CCCCC2
-0.08 | O=S(=O)(CCN1CCCCC1)c1nc2ccccc2s1
-0.47 | COc1ccc(-c2nc(NC(=O)c3ccccc3C(=O)O)sc2C)cc1[N+](=O)[O-]
-0.08 | O=C(CSc1nc2c(sc3ccccc32)c(=O)n1Cc1ccc2c(c1)OCO2)NCC1CCCO1 (centres undefined)
1.9 | O=C(NCCCN1CCCC1)c1ccc(CNc2nc(=S)[nH]c3ccccc23)cc1
-0.65 | O=C(c1nn2c(C(F)(F)F)cc(-c3cccs3)nc2c1Cl)N1CCCCC1
-0.01 | CCOC(=O)C1C(=O)C=C(c2ccc(OC)c(OC)c2)CC1c1cccs1 (centres undefined)
0.66 | CCc1ccc(NC(=O)Cn2cnc3sc(C)c(S(=O)(=O)N4CC(C)CC(C)C4)c3c2=O)cc1 (centres undefined)
0.45 | CCOC(=O)c1c(NC(=O)c2cc(OC)cc(OC)c2)sc2c1CCCCC2
1.2 | O=c1oc2ccccc2cc1-c1cn(-c2ccccc2)c(=O)[nH]1
-0.68 | CCCCc1cc(=O)oc2c(C)c(OCC(=O)OC(C)C)ccc12
-0.18 | O=C1C(=O)N(Cc2cccnc2)C(c2ccccc2)/C1=C(\O)c1ccc(F)cc1 (centres undefined)
-0.29 | O=C(Nc1ccc(Oc2ccccc2)cc1)c1nn(-c2ccc(Cl)cc2)c(=O)c2ccccc12
1.6 | CC(NC(=O)c1cccc(C(=O)NC(C)c2ccccc2)c1)c1ccccc1 (centres undefined)
1 | COc1ccccc1-c1cc(C(F)(F)F)nc(NC2CCCCC2)n1
-1.2 | CC(C)N1C(=O)CN(C2CCCCCC2)C(=O)C1c1ccccc1F (centres undefined)
-0.34 | CCc1cc(-c2n[nH]c(C)c2Oc2ccccc2)c(O)cc1OC(C)C
-0.61 | COc1ccc(C(=O)N2c3ccccc3C(N(C(C)=O)c3ccccc3)CC2C)cc1 (centres undefined)
-0.75 | O=c1[nH]c2ccc(S(=O)(=O)NCCC3=CCCCC3)cc2s1
-0.59 | COc1ccc(Cl)cc1N1C(=O)C(Cl)=C(N2CCCCC2)C1=O
0.57 | CCOC(=O)c1c(NC(=O)CSC2=NCCS2)sc2c1CCCC2
0.19 | COc1ccc(OC)c(S(=O)(=O)Nc2cccc(C(C)=O)c2)c1
-0.6 | Cc1ccccc1N=c1oc2ccc([N+](=O)[O-])cc2cc1C(=O)Nc1nccs1
-0.25 | Cc1ccc(S(=O)(=O)CCC(=O)Nc2ccccc2C)cc1
2.1 | Cc1ccc(-c2nc3cc(NC(=O)C45CC6CC(CC(C6)C4)C5)ccc3o2)cc1
0.18 | Cc1ccc(C)c(N=C2C(=O)Nc3ccccc32)c1
-0.66 | Cc1ccccc1C(=NS(=O)(=O)c1ccc2ccccc2c1)Nc1ccccc1
0.59 | COc1cc(OC)c(Nc2c3c(nc4ccc(Cl)cc24)CCC3)cc1Cl
-0.59 | CCOc1ccc(S(=O)(=O)Nc2ccc(Cl)cc2)c2cccnc12
-0.13 | COc1ccccc1N=c1oc2c(C)ncc(COC(C)=O)c2cc1C(=O)Nc1ccc(C)cc1
0.59 | COC(=O)c1ccccc1NC(=O)C1CCN(S(=O)(=O)c2ccc(C)cc2)CC1
1.1 | CC1CN(C(=S)c2ccc(O)cc2)CC(C)O1 (centres undefined)
1.1 | Cc1cc(C)cc(NC(=O)CSc2nnc(COc3ccccc3Cl)o2)c1
2 | CC(=O)Nc1nc2ccc(-c3nc4ccccc4[nH]3)cc2s1
-0.91 | CCC(C)NC(=O)c1cc2cc3ccc(OC)cc3nc2s1 (centres undefined)
-1.8 | CC(C)c1nc2ccccc2n1CC(O)COc1ccc2ccccc2c1 (centres undefined)
-1.2 | COc1cc(OC)c(OC)cc1C=Cc1nc2ccccc2c(=O)n1-c1ccc(C)cc1
-1.2 | COc1ccc(Nc2cc(N3CCCCCC3)c3nonc3c2[N+](=O)[O-])cc1
-0.83 | CC1CC(C)CN(c2ncnc(N)c2[N+](=O)[O-])C1 (centres undefined)
1 | CCCN(c1ccc(C(C)C)cc1)S(=O)(=O)c1ccc2c(c1)CCN2C(=O)C1CCC1
-0.03 | C1CCCCCC(NCCN2CCNCC2)CCCCC1
-1 | CCc1cc2c(=O)c(-c3cscn3)coc2cc1OC(C)=O
1.8 | Cc1ccc(-n2c(=O)c3sccc3n(CC(=O)N3CCC(C)CC3)c2=O)cc1
-0.68 | O=C(O)C1CCCN(C(=O)c2ccccc2)C1 (centres undefined)
1.4 | CC(C)(C)C(=O)CSc1nc2ccccc2c(=O)n1C1CCCC1
-0.12 | Cc1ncc(CO)c2cc(C(N)=O)c(=Nc3ccccc3F)oc12
-0.79 | CCC(C)NC(=O)c1cccc(-n2c(=S)[nH]c3cc(Cl)ccc3c2=O)c1 (centres undefined)
-0.2 | O=c1ccc(OCc2ccccc2)nn1-c1ccccc1
0.37 | CCOCCCNC(=O)c1cn(C2CCCC2)c(=O)c2c1c1ccccc1n2C
0.76 | O=C(CCn1ccnc1)c1ccc(Br)cc1
-1.6 | O=C(Nc1ccccc1Cl)C1COc2ccccc2O1 (centres undefined)
0.85 | CCOC(=O)c1c(NC(=O)COc2cccc(C)c2C)sc2c1CCC(CC)C2 (centres undefined)
-0.64 | O=C(COC(=O)c1ccc(N2C(=O)C3C4CCC(C4)C3C2=O)cc1)c1ccc([N+](=O)[O-])cc1 (centres undefined)
1.3 | CCCCn1c(SCc2ccc([N+](=O)[O-])cc2)nc2ccc(N3CCOCC3)cc2c1=O
0.35 | COc1ccc(NC(=O)c2cc(Cl)ccc2Nc2ccccc2)cc1OC
-1.4 | COc1ccc(C2/C(=C(\O)c3ccc(C)cc3)C(=O)C(=O)N2CCN(C)C)cc1OC (centres undefined)
0.57 | O=C1C2C3C=CC(C3)C2C(=O)N1Cc1ccc(Cl)cc1 (centres undefined)
0.17 | CC1CCN(C(=O)CSc2nc3c(sc(=S)n3Cc3ccco3)c(=O)n2-c2ccccc2)CC1

In a second layout: 5 of the compounds above.
structure | Measles inh
CCC(C)NC(=O)c1cccc(-n2c(=S)[nH]c3cc(Cl)ccc3c2=O)c1 (centres undefined) | -0.79
CCCN(c1ccc(C(C)C)cc1)S(=O)(=O)c1ccc2c(c1)CCN2C(=O)C1CCC1 | 1
O=C(Nc1ccccc1Cl)C1COc2ccccc2O1 (centres undefined) | -1.6
COc1cc(OC)c(OC)cc1C=Cc1nc2ccccc2c(=O)n1-c1ccc(C)cc1 | -1.2
O=C(O)C1CCCN(C(=O)c2ccccc2)C1 (centres undefined) | -0.68

Later entries
Measles inh | Structure
0.53 | CCN(c1cccc(C)c1)S(=O)(=O)c1ccc2[nH]cc(C(=O)N3CC(C)CC(C)C3)c(=O)c2c1 (centres undefined)
-0.32 | COc1ccc(C=Nc2ccc3ncccc3c2)cc1
-0.23 | Cc1cc(N2CCCC2)nc2ccc(NC(=O)CCC(=O)N(C)C3CCCCC3)cc12
-1.2 | CCN1C(=O)NC(c2ccc(Cl)cc2)C(C(=O)OCCc2ccccc2)=C1C (centres undefined)
1.3 | CCc1ccc(NC2=C(Cl)C(=O)N(c3ccccc3Cl)C2=O)cc1
-0.75 | O=c1c(-c2ccccc2Cl)coc2cc(OCc3ccccc3Cl)ccc12

Looked up by structure from the list above (two):
Measles inh | Structure
-0.75 | O=c1c(-c2ccccc2Cl)coc2cc(OCc3ccccc3Cl)ccc12
-0.23 | Cc1cc(N2CCCC2)nc2ccc(NC(=O)CCC(=O)N(C)C3CCCCC3)cc12

A portion of the library; rates above refer to the full screens.
